BJeLR viab HTS: BJeLR cell viability reduction; BJeLR fibroblasts viability, CellTiterGlo ATP luminescence, 48 h; HRASV12, hTERT and SV40 LT/ST transformed; viability loss activity score, % (concentration not given with the values); 0.64% of 30,000 active; AID 2275; in the data active = viability loss activity score above about 50%; about a fifth of its hits are not listed in these tables;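 note: higher score means fewer live cells and less ATP luminescence; stock transfer was 50 or 100 nL into about 30 µL; 0% = vehicle wells and 100% = a reference killing control; one replicate is shown; the record names a cut of 85%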
A1 inh: inhibitors of A1; MEF A1-2A-BIM cells, caspase-Glo luminescence, 3 h; percent of clofoctol signal, DMSO as zero; caspase activation, % (no concentration beside the values); 0.51% of 21,000 active; AID 2241;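 active = most replicate scores above 10, or exactly half above 10 with mean activity above 10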;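 note: effector caspase 3 and 7 activity cleaving a DEVD luciferin substrate; 50 nL library stock added to about 30 µL; numbers are from one replicate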
The depositor's hits bear a star; nt = not tested or not shown. The list is partial (hit frequency here may not be typical).

compound	BJeLR viab HTS	A1 inh
COc1cc(C)c(C(=O)Oc2cc(C)c(C(=O)Oc3cc(C)c(C(=O)NC(C)C(=O)O)c(O)c3)c(O[C@@H]3O[C@H](CO)[C@@H](O)[C@H](O)[C@H]3O)c2)c(OC)c1 (some centres undefined)	-5.9	0.0
COc1ccc(S(N)(=O)=O)cc1-c1nnc2c3ccccc3c(C)nn12	-0.4	nt
CCN(CC)c1ccc(C=C2C(=O)c3ccccc3C2=O)c(OC)c1	0.3	nt
CCOC(=O)C1CCN(C(=O)c2sc(-c3ccc4c(c3)CCO4)nc2C)CC1	0.8	-0.2
Cc1ccc(S(=O)(=O)N(C)C[C@H]2Oc3ccc(N(C)C)cc3C(=O)N([C@@H](C)CO)C[C@@H]2C)cc1	-5.4	0.6
C[C@@H]1CN([C@@H](C)CO)C(=O)c2cc(NC(=O)C3CC3)ccc2O[C@H]1CN(C)Cc1ccc(Cl)c(Cl)c1	-0.8	0.2
O=S(=O)(CCN1CCSCC1)c1ccccc1	-1.6	0.0
O=C(NCc1ccco1)C(c1ccccc1)c1ccccc1	3.9	0.3
C[C@@H]1CN([C@H](C)CO)C(=O)c2cc(NS(=O)(=O)c3ccc(Cl)cc3)ccc2O[C@@H]1CN(C)S(C)(=O)=O	4.5	1.4
C=CCN(CC=C)Cc1c(O)ccc2c(=O)c(-c3ccccc3)coc12	2.3	0.9
C[C@@H]1CN([C@@H](C)CO)C(=O)c2cc(NC(=O)Cc3ccccc3)ccc2O[C@H]1CN(C)S(C)(=O)=O	2.7	0.3
C[C@@H]1CN([C@H](C)CO)C(=O)c2cc(NC(=O)CCN3CCOCC3)ccc2O[C@H]1CN(C)C	0.9	0.5
CCNC(=O)C1CCCN(c2nnc(N3CCCC3=O)s2)C1 (centres undefined)	-2.9	0.7
NS(=O)(=O)c1ccc(CCNC(=O)CCC2COc3ccccc3O2)cc1 (centres undefined)	4.1	-0.7
C[C@@H]1CN([C@H](C)CO)C(=O)c2cc(NC(=O)CCC(F)(F)F)ccc2O[C@@H]1CN(C)Cc1ccccc1	0.5	-0.1
C[C@@H]1CN([C@@H](C)CO)C(=O)c2cccc(NC(=O)NC3CCCCC3)c2O[C@@H]1CN(C)C(=O)Nc1ccc(F)cc1	-1.7	nt
CC(C)NC(=O)N(C)C[C@@H]1Oc2c(NC(=O)c3cnccn3)cccc2C(=O)N([C@H](C)CO)C[C@H]1C	-5.8	nt
CNC(=O)COc1ccc(Nc2nnc(-c3ccc(C)cc3)c3ccccc23)cc1	-2.1	-0.2
COc1ccc(-n2cnc3cc(NCc4ccccc4O)ccc32)cc1	-0.6	0.1
CNC[C@H]1Oc2ccc(NC(=O)Nc3cccc4ccccc34)cc2C(=O)N([C@@H](C)CO)C[C@@H]1C	0.8	0.5

Overlap with the part before: seven entries; new compounds follow.
compound	BJeLR viab HTS	A1 inh
NS(=O)(=O)c1ccc(CCNC(=O)CCC2COc3ccccc3O2)cc1 (centres undefined)	4.1	-0.7
C[C@@H]1CN([C@H](C)CO)C(=O)c2cc(NC(=O)CCC(F)(F)F)ccc2O[C@@H]1CN(C)Cc1ccccc1	0.5	-0.1
C[C@@H]1CN([C@@H](C)CO)C(=O)c2cccc(NC(=O)NC3CCCCC3)c2O[C@@H]1CN(C)C(=O)Nc1ccc(F)cc1	-1.7	nt
CC(C)NC(=O)N(C)C[C@@H]1Oc2c(NC(=O)c3cnccn3)cccc2C(=O)N([C@H](C)CO)C[C@H]1C	-5.8	nt
CNC(=O)COc1ccc(Nc2nnc(-c3ccc(C)cc3)c3ccccc23)cc1	-2.1	-0.2
COc1ccc(-n2cnc3cc(NCc4ccccc4O)ccc32)cc1	-0.6	0.1
CNC[C@H]1Oc2ccc(NC(=O)Nc3cccc4ccccc34)cc2C(=O)N([C@@H](C)CO)C[C@@H]1C	0.8	0.5
C[C@H](CO)N1C[C@H](C)[C@@H](CN(C)Cc2ccc(Cl)c(Cl)c2)Oc2c(NC(=O)C3CCOCC3)cccc2C1=O	-0.1	nt
CCOc1ccc2c(c1)[nH]c(=S)n2C	-0.5	0.4
CN(C1CCCCC1)S(=O)(=O)c1cc(Cl)ccc1Cl	0.1	-1.4
C[C@H](CO)N1C[C@H](C)[C@H](CN(C)Cc2ccc(Cl)c(Cl)c2)Oc2c(NC(=O)C3CCCCC3)cccc2C1=O	6.9	nt
Cc1ccc(C(=O)N2C(=O)C(c3ccccc3)Oc3ccccc32)cc1 (centres undefined)	-3.1	0.7
CCN=C(NCC)SC1CC(=O)N(CCc2ccccc2)C1=O (centres undefined)	5.9	1.4
Cc1cc(C(=O)Nc2cccc3c2O[C@H](CN(C)C)[C@H](C)CN([C@@H](C)CO)C3=O)n(C)n1	6.2	nt
C[C@@H]1CN([C@H](C)CO)C(=O)c2cccc(NS(=O)(=O)c3ccc(Cl)cc3)c2O[C@@H]1CN(C)Cc1ccncc1	-4.8	nt
Cc1ccc(C2CC(=O)NC(SCC(=O)OC(C)C)=C2C#N)cc1 (centres undefined)	4.1	0.7
COc1ccc2[nH]c(C)c(CCN(Cc3cccs3)C(=S)NC3CCCCC3)c2c1	-8.4	nt
O=C(O)/C=C1\OC(=O)c2ccccc21	1.8	0.0
CC(=O)N/C(=C/c1ccccc1Br)C(=O)NC1CCCCCC1	-1.0	0.4
O=C(c1oc(=O)c2ccccc2c1-c1ccccc1)N1CCCN(Cc2ccc(F)cc2)C1	-1.6	nt
C=CC1(C)OCO/C1=C\C[N+](C)(C)C (centres undefined)	-0.5	0.4
Cc1noc(C)c1S(=O)(=O)N(C)C[C@H]1Oc2ccc(NS(=O)(=O)c3ccc(Cl)cc3)cc2C(=O)N([C@H](C)CO)C[C@H]1C	-0.1	0.1
Cc1noc(C)c1S(=O)(=O)Nc1ccc2c(c1)C(=O)N([C@@H](C)CO)C[C@@H](C)[C@@H](CN(C)CC1CC1)O2	-3.6	0.1
COc1ccc(S(=O)(=O)N(C)C[C@H]2Oc3ccc(NS(=O)(=O)c4cn(C)cn4)cc3C(=O)N([C@@H](C)CO)C[C@H]2C)cc1	1.9	-0.1
COc1cc2ccc(=O)oc2c(O[C@@H]2O[C@H](CO)[C@@H](O)[C@H](O)[C@H]2O)c1OC	-4.6	-1.1
CC/C=C\CC1C(=O)C=C/C1=C/CCCCCCC(=O)O (centres undefined)	0.4	0.2
CC(=O)N1c2ccccc2C(=O)C1NC(N)=S (centres undefined)	-3.6	-0.3
O=C(NC1CCCCCC1)C1CC1	-2.4	0.1
C=C1CCC2(C(=O)OC3OC(CO)C(O)C(O)C3OC3OCC(O)C(O)C3O)CCC3(C)C(=CCC4C5(C)CCC(OC6OC(CO)C(O)C(O)C6O)C(C)(CO)C5CCC43C)C2C1 (centres undefined)	-6.7	0.1
CC1=C(C(=O)N2CCCCC2)C2(CCCCC2)OC1=O	-2.4	nt
CCc1cc(=O)oc2c(C)c(OCC(N)=O)ccc12	-1.3	-0.5
C[C@H]1CN([C@@H](C)CO)C(=O)c2cc(NC(=O)Nc3ccccc3)ccc2O[C@H]1CN(C)C(=O)Nc1ccccc1	-4.1	1.2
CNC[C@H]1Oc2c(NC(=O)Nc3ccc(C(F)(F)F)cc3)cccc2C(=O)N([C@H](C)CO)C[C@H]1C	1.3	nt
Brc1ccc2[nH]c3c(c2c1)CCCC3NCc1ccccc1 (centres undefined)	26	0.2
CC(C)(CO)NC(=O)c1sc2ccccc2c1Cl	1.8	-0.6
Oc1c(C(c2ccncc2)N2CCCC2)ccc2cccnc12 (centres undefined)	31	4.8
CC1CCC(NC(=O)c2ccccc2C(=O)O)CC1 (centres undefined)	3.5	0.1
CC(C)(C)c1cc(C(=O)CCN2CCCCC2)cc(C(C)(C)C)c1O	1.6	nt
C[C@@H]1CN([C@H](C)CO)C(=O)c2cc(NS(C)(=O)=O)ccc2O[C@@H]1CN(C)C	-2.2	-1.1
Cc1noc(C)c1NC(=O)N(C)C[C@H]1Oc2ccc(NC(=O)Nc3cccc4ccccc34)cc2C(=O)N([C@@H](C)CO)C[C@@H]1C	-5.1	0.3
Cc1noc(C)c1S(=O)(=O)N(C)C[C@@H]1Oc2c(NS(=O)(=O)c3cn(C)cn3)cccc2C(=O)N([C@H](C)CO)C[C@@H]1C	1.1	nt
CCC(C)NC(=O)c1cc(-c2ccc(F)cc2)no1 (centres undefined)	0.9	-0.8
CCc1cc(C)cc(OCCn2cc(C=C3C(=O)NC(=O)NC3=O)c3ccccc32)c1	0.7	39*
COc1ccc(CNC(=O)C(NS(=O)(=O)c2ccc3nc(C)sc3c2)C(C)C)cc1 (centres undefined)	3.5	nt
COc1ccc(NC(=O)C(c2ccc(OC)cc2)N(C)C(=O)Cc2c[nH]c3ccccc23)cc1 (centres undefined)	-11	nt
Cc1ccc(S(=O)(=O)N(C)C[C@H]2Oc3c(cccc3N(C)C)C(=O)N([C@@H](C)CO)C[C@H]2C)cc1	-0.1	nt
O=C(CSc1nc2c(c(C(F)(F)F)n1)CCc1ccccc1-2)N1CCCC1	-3.7	nt

Part of the list above in a different format.
Under each structure: BJeLR viab HTS	A1 inh
Cc1noc(C)c1NC(=O)N(C)C[C@H]1Oc2ccc(NC(=O)Nc3cccc4ccccc34)cc2C(=O)N([C@@H](C)CO)C[C@@H]1C
 : -5.1	0.3
Cc1noc(C)c1S(=O)(=O)N(C)C[C@@H]1Oc2c(NS(=O)(=O)c3cn(C)cn3)cccc2C(=O)N([C@H](C)CO)C[C@@H]1C
 : 1.1	nt

Carrying on:
compound	BJeLR viab HTS	A1 inh
CC(C)Cc1ccc(/C=C/C(=O)N2CCCC2)cc1	-1.4	-1.7
C[C@H]1CN([C@@H](C)CO)C(=O)c2cc(NS(=O)(=O)c3ccc(Cl)cc3)ccc2O[C@@H]1CN(C)Cc1ccc(C(F)(F)F)cc1	-3.9	-1.0
CC#CCc1cc2ccccc2c(=O)o1	-3.9	-0.3
O=C(CSc1nc2ccccc2c(=O)n1CCc1ccccc1)c1ccc(Cl)cc1	1.6	-0.4
N#Cc1ccc(-c2cccs2)nc1SCCOc1ccccc1	-3.2	-1.0
CCOC(=O)c1c(C)n(-c2ccc(C)cc2)c2ccc(OCC(O)CN3CCN(C)CC3)cc12 (centres undefined)	7.0	nt
Cc1cccc2c1-c1sc(C(=O)NCCN(C)C3CCCCC3)cc1CO2	0.4	2.5
C[C@H]1CN([C@@H](C)CO)C(=O)c2cccc(NC(=O)Nc3ccc4c(c3)OCO4)c2O[C@H]1CN(C)C(=O)Nc1ccc2c(c1)OCO2	-14	nt
Cc1ccc2c(c1)-c1onc(C(=O)N(CC(C)C)CC(C)C)c1CO2	1.8	0.9
CC1CCCCC1NC(=O)C1CCN(Cc2cnn(-c3ccccc3)c2-n2cccc2)CC1 (centres undefined)	-4.3	-0.6
Cc1noc(C)c1NC(=O)N(C)C[C@H]1Oc2ccc(NC(=O)CCN3CCOCC3)cc2C(=O)N([C@H](C)CO)C[C@H]1C	3.4	0.3
CCN1CCCC1CNC(=O)c1ccc2c(c1)sc1nc(-c3ccc(C)cc3)cn12 (centres undefined)	95*	8.3
Cc1noc(C)c1NC(=O)Nc1ccc2c(c1)C(=O)N([C@@H](C)CO)C[C@H](C)[C@H](CN(C)C)O2	1.5	0.1
C[C@@H]1CN([C@H](C)CO)C(=O)c2cccc(NS(=O)(=O)c3ccccc3)c2O[C@H]1CN(C)Cc1ccccc1	-8.5	nt
COc1ccc(NC(=O)N(C)C[C@@H]2Oc3ccc(NC(=O)Cc4cn(C)c5ccccc45)cc3C(=O)N([C@@H](C)CO)C[C@H]2C)cc1	0.6	0.7
CC(C)NC(=O)N(C)C[C@@H]1Oc2c(NC(=O)Nc3ccc(C(F)(F)F)cc3)cccc2C(=O)N([C@@H](C)CO)C[C@H]1C	-9.1	nt
C[C@H]1CN([C@@H](C)CO)C(=O)c2cccc(NS(=O)(=O)c3cccs3)c2O[C@H]1CN(C)Cc1ccccc1	-1.3	nt
C[C@@H]1CN([C@@H](C)CO)C(=O)c2cccc(NC(=O)Nc3ccc(C(F)(F)F)cc3)c2O[C@H]1CN(C)Cc1ccc2c(c1)OCO2	15	nt
C[C@@H]1CN([C@@H](C)CO)C(=O)c2cc(NS(=O)(=O)c3cccs3)ccc2O[C@@H]1CN(C)Cc1ccncc1	0.0	0.2
COC(=O)CSc1ccc2nnc(-c3ccc(OC)cc3)n2n1	-1.7	nt
COCc1cc(=O)[nH]c(SCC(=O)c2ccccc2)n1	7.7	-0.8
C[C@H](CO)N1C[C@H](C)[C@H](CN(C)S(C)(=O)=O)Oc2c(NS(=O)(=O)c3cn(C)cn3)cccc2C1=O	-1.8	nt
CC(C)C[C@](O)(C(=O)OCc1ccc(O[C@@H]2O[C@H](CO)[C@@H](O)[C@H](O)[C@H]2O)cc1)[C@H](O)C(=O)OCc1ccc(O[C@@H]2O[C@H](CO)[C@@H](O)[C@H](O)[C@H]2O)cc1	-5.9	-0.4
CCn1c(Sc2ncnc3c2sc2nc(C)cc(C)c23)nnc1-c1cccs1	-6.7	-3.3
C[C@H]1CN([C@@H](C)CO)C(=O)c2cc(NS(=O)(=O)c3cn(C)cn3)ccc2O[C@@H]1CN(C)C(=O)Nc1cccc2ccccc12	-0.5	0.0
COc1ccc(NC(=O)Nc2ccc3c(c2)C(=O)N([C@H](C)CO)C[C@@H](C)[C@@H](CN(C)S(=O)(=O)c2ccc(OC)cc2)O3)cc1	6.5	-0.7
O=C(C[n+]1ccc(/C=N/O)cc1)N1CCCCC1	-3.4	-0.7
CC(C)NC(=O)Nc1cccc2c1O[C@@H](CN(C)C)[C@@H](C)CN([C@@H](C)CO)C2=O	1.4	nt

Screening data: PubChem, Broad Institute
